Screening data as filed in PubChem BioAssay.
PABP FP inh = PABP poly(A) RNA binding inhibitors, primary screen, biochemical, fluorescence polarization, uHTS; Polyadenylate-binding protein 1 (Homo sapiens), P11940; inhibition, % at 35 µM; 1% of 290,000 active;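 active = 50% or more with normal probe brightness, or confirmed in later tests; inconclusive = above 50% with abnormal brightness, or retests that disagree; inactive = below 50% or failed in later tests; about a fifth of its hits are not listed in these tables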;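 also: calls also rest on retests at 20 µM and on dose response follow-up; controls were probe without protein and protein plus probe with vehicle; some compounds called inactive have numbers as strong as hits; many hits fall short of the cut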
Target sequence (P11940 whole entry, looked up): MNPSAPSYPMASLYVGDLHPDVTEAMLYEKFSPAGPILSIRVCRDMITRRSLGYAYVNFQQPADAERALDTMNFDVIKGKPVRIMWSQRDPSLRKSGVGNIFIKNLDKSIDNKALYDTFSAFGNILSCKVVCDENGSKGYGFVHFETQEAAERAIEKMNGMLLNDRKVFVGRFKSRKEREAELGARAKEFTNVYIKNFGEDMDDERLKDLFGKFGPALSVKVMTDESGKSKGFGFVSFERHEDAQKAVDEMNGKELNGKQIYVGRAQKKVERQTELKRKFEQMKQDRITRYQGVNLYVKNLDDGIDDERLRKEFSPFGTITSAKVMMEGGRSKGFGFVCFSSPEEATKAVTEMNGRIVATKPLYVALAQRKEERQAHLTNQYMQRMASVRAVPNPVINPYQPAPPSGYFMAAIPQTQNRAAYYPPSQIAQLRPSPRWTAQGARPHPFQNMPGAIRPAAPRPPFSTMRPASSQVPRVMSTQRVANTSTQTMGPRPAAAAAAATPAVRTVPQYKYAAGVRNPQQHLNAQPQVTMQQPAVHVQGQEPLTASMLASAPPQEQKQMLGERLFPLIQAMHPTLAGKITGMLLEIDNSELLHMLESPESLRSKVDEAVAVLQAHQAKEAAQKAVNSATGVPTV
UUG fidelity = modulators of yeast start codon fidelity, primary screen, whole organism, S. cerevisiae, single point, plate reader; S. cerevisiae UUG-firefly luciferase reporter, luminescence/redox ratio; activity score, % at 18.7 µM; 0.13% of 350,000 active; AID 602363, 2012;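 active = replicate mean at a twofold rise or more, about +100% in these data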;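 also: firefly luciferase made from a UUG start codon reports start codon fidelity; reporter light over untreated wells divided by growth signal over untreated wells; some hits fall short of that in this replicate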
Env fusion inh = inhibitors of HIV-1 Env-driven cell-cell fusion, primary screen, HeLa-JRFL effector, CEM21 target cells, luciferase. inhibition, % at 12.3 µM. 1.1% of 360,000 active;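 active = mean replicate inhibition score of at least 50 and every replicate individually at or above 50; inconclusive = only one of the two criteria met; inactive = mean below 50 and not all replicates reaching 50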;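 also: 0% = plate neutral controls and 100% = maraviroc near 300 nM; one replicate is shown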
CSC inhib = cancer stem cell viability inhibitors, primary screen, luminescence. cancer stem cell-like cells viability. inhibition, % at 7.5 µM. 1.1% of 300,000 active. AID 2717, 2010;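 active = mean at 75% or more and at least half the replicates too; inconclusive = mean and replicates disagree; tested in HMLE shEcad cells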;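 also: 0% = median of negative and 100% = median of positive control wells; the first replicate is given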
eIF4H FP inh = human eIF4H binding inhibitors, primary screen, translation initiation inhibitor project, biochemical, uHTS, fluorescence polarization; Eukaryotic translation initiation factor 4H (Homo sapiens), Q15056; eIF4H fluorescence polarization binding assay; inhibition, % at 35 µM; 0.94% of 290,000 active; AID 2012, 2009;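 active = 50% or more with normal probe brightness, or confirmed in later tests; inconclusive = above 50% with abnormal brightness, or retests that disagree; inactive = below 50% or failed in later tests; about a fifth of its hits are not listed in these tables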;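 also: calls also rest on retests at 20 µM and on dose response follow-up; 0% = protein and probe with vehicle and 100% = probe without protein; strong numbers were not always called active; many hits fall short of the cut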
Rce1 inh = yeast Rce1p protease inhibitors, primary screen, biochemical, fluorescence, cell-free homogeneous; calls only; CAAX prenyl protease 2 (Saccharomyces cerevisiae (strain ATCC 204508 / S288c)), Q03530; yeast membranes, quenched prenylated peptide cleavage fluorescence; AID 2563, 2010; 0.27% of 290,000 active;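 active = fall in fluorescence gain of 50% or more versus controls, with final raw signal at or below 3038400; inconclusive = same 50% fall but final raw signal above 3038400; inactive = fall in fluorescence gain under 50%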;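 also: plate controls were neutral control wells for no effect and wells lacking membranes for full effect; tested at 10 µM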
Target sequence (Q03530 whole entry, looked up): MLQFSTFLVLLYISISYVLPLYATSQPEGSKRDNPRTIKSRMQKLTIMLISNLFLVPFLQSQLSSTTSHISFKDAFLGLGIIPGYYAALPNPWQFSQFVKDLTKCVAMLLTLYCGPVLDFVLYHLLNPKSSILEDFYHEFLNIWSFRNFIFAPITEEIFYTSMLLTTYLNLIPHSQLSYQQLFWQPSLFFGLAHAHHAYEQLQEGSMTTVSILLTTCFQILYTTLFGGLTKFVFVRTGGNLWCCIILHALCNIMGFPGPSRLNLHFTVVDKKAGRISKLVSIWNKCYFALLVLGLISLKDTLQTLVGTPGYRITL
MT1-MMP act inh = blockers of MT1-MMP proenzyme processing, primary screen, HT1080 RFP-PRO-GFP cells, GFP/RFP fluorescence. Matrix metalloproteinase-14 (Homo sapiens), P50281. GFP/RFP ratio fluorescence, overnight; percent of plate control window, DMSO zero. GFP/RFP ratio change, % at 20 µM. 0.061% of 360,000 active. AID 651647, 2012;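 active = GFP/RFP ratio change of at least 30% with cell ATP level not reduced by more than half and red fluorescence within 50% of control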; also: strong numbers were not always called active
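Test system: HT1080 RFP-PRO-GFP cells; Benchmarks: DMSO and RFP-L50D-GFP cell wells; Timing: cells overnight before dosing, compound overnight, 37 °C, 5% CO2; Compound: one 20 µM compound dose with 1% DMSO; Read-out: GFP/RFP fluorescence ratio.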
eIF4H FP inh retest = further read-out of eIF4H FP inh, marked with its call; inhibition, %; compound at 20 µM; confirmation average;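 mean of two retest wells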
PABP FP inh retest = recorded beside PABP FP inh, whose call it bears; inhibition, %; compound at 20 µM; confirmation repeats;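 mean of two retest wells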
MT1-MMP act inh RFP = second read-out of MT1-MMP act inh, no call of its own (marks repeat the call); RFP signal change, %; measured here: RFP expression control read;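 0 = vehicle wells; hits needed this value within 50% of zero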
Active calls of the source: *; i = inactive; ? = inconclusive; / = not tested or not shown; & = joins results of further samples; [ ] = dose if it differs, or a comment.

SMILES | PABP FP inh | UUG fidelity | Env fusion inh | CSC inhib | eIF4H FP inh | Rce1 inh | MT1-MMP act inh | MT1-MMP act inh RFP | others
CCOc1ccc(S(=O)(=O)NCCC(=O)N2CCN(C(C)=O)CC2)cc1 | / | -5 | 0 | / | / | / | 1 | 7
COc1ccc(NCc2nc3ccccc3n2C)cc1 | -4 | -5 | -52 | -4 | -5 | i | -1 | -2
Cc1ccc(-n2nc3c(c2NC(=O)c2ccco2)CS(=O)C3)c(C)c1 (stereo unspecified) | / | -20 | 5 | -21 | / | i | 1 | 1
COc1cc(CCC(=O)OCC(=O)Nc2ccccc2F)cc(OC)c1OC | 11 | 5 | 5 | -15 | 5 | i | -2 | 0
O=C(OCC(=O)c1ccco1)c1ccc2ncsc2c1 | -2 | 10 | 2 | 9 | -3 | i | 4 | 5
CC(C)(C)Nc1nc(NCc2cccnc2)nc(N2CCOCC2)n1 | 8 | / | 26 | -17 | 3 | i | -1 | -2
COc1cccc(C2=NOC(C(=O)NCCN3CCOCC3)C2)c1 (stereo unspecified) | -2 | 0 | -13 | -10 | -4 | i | 2 | 5
CCN(Cc1cccs1)C(=O)CN1CCN(S(=O)(=O)c2ccc3c(c2)OCCCO3)CC1 | / | 7 | 9 | / | / | / | -1 | -3
Cc1ccc(CN2C(=O)NC(Cc3c[nH]c4ccccc34)C2=O)cc1 (stereo unspecified) | -1 | -16 | 15 | 5 | -2 | i | 1 | 2
O=C(/C=C/c1ccc(Cl)cc1Cl)Nc1cccc(S(=O)(=O)NC2=NCCC2)c1 | 10 | / | -151 | 16 | -2 | i | 2 | -11
O=C(N=C1c2ccccc2CN1c1ccc(F)c(Cl)c1)c1cccnc1Cl | 8 | / | 1 | 8 | 4 | i | / | /
Cc1oc(-c2ccccc2Cl)nc1CS(=O)(=O)CC(=O)N1CCOCC1 | -6 | 9 | 9 | -11 | -16 | i | -1 | 5
Cc1cc(C)n2cc(-c3ccc(Cl)cc3)c(C(=O)O)c2n1 | -6 | / | -85 | 3 | -10 | i | 2 | 8
COc1cccc(C(=O)NCC(=O)N2CCC3(CC2)NCCc2[nH]cnc23)c1OC | / | -8 | -4 | -13 | / | i | 1 | 5
COc1cccc(CNC(=O)Cn2cccc2C(=O)c2ccccc2C)c1 | / | -8 | -7 | -7 | / | i | 0 | 3
O=C(Cn1c[n+](CC(=O)c2ccc([N+](=O)[O-])cc2)cn1)c1ccc([N+](=O)[O-])cc1 | 8&9 | / | 15&3 | -1&4 | -4&3 | i | 5&-5 | -11&-3
O=c1c(C(c2c(O)nc3n(c2=O)CCS3)c2cccc3ccccc23)c(O)nc2n1CCS2 | 37 | -20 | -108 | 21 | 21 | i | 0 | 2
COc1ccc(N(CC(=O)NCCC2=CCCCC2)S(=O)(=O)c2ccccc2)cc1 | 0 | 0 | 40 | -5 | -10 | i | -2 | -10
Cc1cc(NC(=O)CSc2cc(C)c3ccccc3n2)no1 | / | -22 | -15 | / | / | / | 4 | 1
O=[N+]([O-])c1ccccc1/C=C/C=N/n1c(-c2ccco2)n[nH]c1=S | 16 | / | 12 | -7 | -5 | i | 0 | -3
COCCNC(=O)Cn1cc(/C=C(\C#N)C(=O)NC2CCCC2)c2ccccc21 | 9 | -9 | 12 | 2 | -10 | i | 1 | 3
C[C@H](CO)N1C[C@H](C)[C@@H](CN(C)Cc2ccc3cccnc3c2)OCc2cnnn2CCCC1=O | / | -11&-3&-4 | -1[16.7 µM] | / | / | / | 3 | 4
CCCCCn1c(SCC#N)nc2cc(C(=O)NCC3CCCO3)ccc2c1=O (stereo unspecified) | -11 | -21 | 20 | -12 | -1 | i | -1 | 2
COCCCNC(=O)CC(=O)N/N=C\c1ccc(SC)cc1 | -6 | / | 13 | 4 | 0 | i | 4 | 1
C=CCSc1nnc(N2C(=O)C(O)=C(C(=O)c3ccco3)C2c2ccc(F)cc2)s1 (stereo unspecified) | 16 | 8 | 14 | -17 | 16 | i | -21 | 5
CCc1ccc(NC(=O)c2ccc(OC)c([N+](=O)[O-])c2)cc1 | 1 | / | -15 | 10 | 5 | i | 4 | -1
Cc1ccccc1NC1=NS(=O)(=O)c2ccccc21 | -9 | 7 | / | -4 | -13 | i | 0 | 3
Cc1cc(Cl)c(OCCCNCc2ccccc2)c(Br)c1 | -6 | -7 | -75 | 37 | -6 | i | -14 | -6
C=CCn1c(SCC(=O)Nc2ccc(F)cc2)nc2cc(C(=O)O)ccc2c1=O | -3 | / | -9 | / | -2 | i | -3 | -1
O=C1NN(c2ccccc2)C(=O)/C1=C\c1ccc(-c2cc([N+](=O)[O-])ccc2O)o1 | 18* | / | 11 | / | 92* | / | 17 | 5 | eIF4H FP inh retest=62*;PABP FP inh retest=56*
COc1cc(CC(=O)NCC2COc3ccccc3O2)cc(OC)c1OC (stereo unspecified) | -14 | / | -4 | -10 | -4 | i | 3 | 5
O=c1oc2c(CN3CCOCC3)c(O)ccc2c2c1CCCC2 | 3 | / | / | 4 | 5 | ? | 4 | 6
Cc1ccc(C)c(N=Nc2ccc(O)c3ncccc23)c1 | -2 | / | -40 | 103* | 22 | i | 13 | -18
COc1cc(SC)ccc1C(=O)NCCNC(=O)c1nonc1N | -6 | / | 12 | / | -11 | i | -1 | -1
CCCCCCCn1c(=N)n(CC(O)c2ccco2)c2ccccc21 (stereo unspecified) | -9 | -5 | -4 | 1 | -7 | i | -18 | 0
COc1ccc(C(=O)O/N=C(\N)c2ccccc2)c(OC)c1 | 8 | / | -51 | 10 | 1 | i | 2 | 2

Two compounds drawn at random from the list so far:
SMILES | PABP FP inh | UUG fidelity | Env fusion inh | CSC inhib | eIF4H FP inh | Rce1 inh | MT1-MMP act inh | MT1-MMP act inh RFP | others
CCc1ccc(NC(=O)c2ccc(OC)c([N+](=O)[O-])c2)cc1 | 1 | / | -15 | 10 | 5 | i | 4 | -1
C=CCn1c(SCC(=O)Nc2ccc(F)cc2)nc2cc(C(=O)O)ccc2c1=O | -3 | / | -9 | / | -2 | i | -3 | -1

Other compounds
SMILES | PABP FP inh | UUG fidelity | Env fusion inh | CSC inhib | eIF4H FP inh | Rce1 inh | MT1-MMP act inh | MT1-MMP act inh RFP | others
O=C1NN(c2cccc(Br)c2)C(=O)/C1=C/c1cccs1 | -2 | / | 4 | 9 | 4 | i | 2 | 0
CC1=C(C(=O)N2CCOCC2)CC(CC(=O)NCCCCc2ccccc2)C(=O)N1CCCN1CCCC1=O (stereo unspecified) | / | -1 | 5 | / | / | / | 0 | 5
COc1cc(OC)c2c(-c3cccc(-c4ccc(NC(C)=O)cc4)c3)cc(=O)oc2c1 | / | 13 | -197 | / | / | / | 0 | -12
CCC1CCCCN1Cc1cc(OC)c(O)c([N+](=O)[O-])c1 (stereo unspecified) | -7 | / | -17 | -18 | -9 | i | / | /
COc1cc(CN(C(=O)c2ccco2)c2ccc(C)cc2)ccc1O | -9 | -12 | 13 | -7 | 18 | i | -2 | 2
O=C(Cc1cccc2ccccc12)Nc1ccc(OC(F)F)c(Cl)c1 | 2 | 3 | 11 | 11 | 29 | i | -5 | -1
CCCCN(C=O)c1c(CC)nc2ccc(C(=O)N(C)Cc3ccco3)cn12 | / | -10 | 9 | / | / | / | 1 | 5
COc1ccc(S(=O)(=O)N2CCOCC2)cc1NC(=O)Cc1coc2cc(C)c(C)cc12 | 5 | -6 | / | 4 | 1 | i | -1 | 1
Cc1ccccc1NC(=O)n1ncc2cc(Cl)ccc21 | -9 | -13 | -15 | -14 | -10 | i | 0 | 3
CC(=O)Nc1ccc(S(=O)(=O)N(C)CC(=O)OCC(=O)N(C)C2CCS(=O)(=O)C2)cc1 (stereo unspecified) | / | -14 | -5 | -6 | / | i | 3 | 1
O=c1[nH]c(=O)n(Cc2ccccc2)c2nc(-c3ccc(Oc4ccc(F)cc4)c([N+](=O)[O-])c3)n(CCO)c12 | -12 | / | -8 | / | -9 | i | -9 | -15
CC(C)c1c(O)nc(SCCC(=O)O)[nH]c1=O | 16 | -1 | -70 | -9 | 5 | i | 2 | 4
COc1ccccc1CNc1ncccc1[N+](=O)[O-] | 2 | -11 | 13 | 0 | 0 | i | 3 | 2
Cc1ccccc1C(=O)NC(=S)NCc1cccnc1 | -1 | -23 | 4 | -11 | -5 | i | -4 | -3
O=C(O)c1ccc(N2CCCCS2(=O)=O)cc1 | 6 | / | 9 | 15 | 1 | i | 0 | 4
O=Cc1c(Sc2ccccn2)nc2ccccn2c1=O | 3 | -10 | / | 8 | 2 | i | -3 | -7
O=C(CN1C(=O)c2ccccc2C1=O)Nc1cccc([N+](=O)[O-])c1 | -10 | 1 | 8 | -10 | -1 | i | 2 | 3
N=c1n(Cc2ccccc2Cl)c2ccccc2n1CC(O)c1ccco1 (stereo unspecified) | 0 | / | -2 | 2 | 0 | i | -3 | -4
CNC(=O)c1ccc(CN(C)C(=O)c2cc(C3CC3)nc3c2cnn3C(C)C)cc1 | / | -3 | 0 | / | / | / | 4 | -4
COC(=O)Cc1ccc(NC(=S)N2CCN(C(=O)C3CCCO3)CC2)cc1 (stereo unspecified) | -1 | -18 | -1 | -10 | 0 | i | 0 | 4
N#CC1=C(N)Oc2c(ccc3cccnc23)C1c1ccncc1 (stereo unspecified) | 11 | -26 | 23 | 32 | 15 | i | 0 | -6
O=C(NCCc1ccccc1)C(=O)c1cn(CC(=O)N2CCCC2)c2ccccc12 | 10 | -9 | -2 | / | -7 | i | -1 | -1
O=C(O)C1C2CCC(C2)C1C(=O)Nc1nc2ccccc2s1 (stereo unspecified) | 7 | 3 | -18 | 21 | -4 | i | 6 | 7
CC(C)NC(=O)C1(C)CCN1C(=O)c1ccccc1Oc1ccccc1 (stereo unspecified) | / | -22 | -7 | / | / | / | 2 | 5
O=C(NC(O)C(=O)c1ccc(F)cc1)c1ccc(F)cc1 (stereo unspecified) | 2 | 3 | 5 | -14 | 0 | i | 0 | -2
Cc1ccc(S(=O)(=O)N2CCN(CCNC(=O)C(=O)NCc3ccccc3)CC2)cc1 | 2 | -9 | 5 | 9 | -1 | i | 1 | 1
CC(=O)Nc1ccc(SC[C@H](Cc2ccccc2)N2CC[C@@H](O)CCC2=O)cc1 | / | -11 | -19 | 2 | / | / | 0 | 5
Cc1oc(C(N)=O)cc1COc1ccc(C(N)=O)cc1 | 4 | / | -4 | -4 | 0 | i | 2 | -2
O=C(Cc1cccs1)Nc1ccccn1 | 6 | -3 | -16 | 6 | 0 | i | -6 | 2
Cc1nnc(SCC(=O)NC2CCCC2)s1 | -4 | -19 | -260 | -2 | -3 | i | -1 | 3
Cc1cc2c(c(SCC(N)=O)n1)C(=O)OC2 | 0 | / | 1 | -12 | -4 | i | -1 | 5
O=C(CCS(=O)(=O)c1ccccc1)NC12CC3CC(CC(C3)C1)C2 | 4 | -22 | -118 | -12 | 7 | i | -5 | 2
CC1(C)Cc2c(c(N3CCOCC3)nc3snc(Br)c23)CO1 | 6 | 4 | -70 | -6 | -4 | i | -1 | 2
